Ab BasE inh: inhibitors of Acinetobacter baumannii siderophore enzyme BasE | 0.1% of 84,000 active | purified BasE, fluorescence polarization binding displacement | AID 485350 | inhibition, % (test concentration not listed);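 active = both replicates above 25% with normal brightness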;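 note: 0% = negative plate control signal and 100% = positive plate control signal; stock transfer was 100 nL into about 30 µL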
KSHV LANA nucl: LANA-nucleosome interaction inhibition. FITC-LANA1-23 / chicken nucleosome fluorescence polarization; hits give low values. z-score (no concentration beside the values). 0.3% of 51,000 active. AID 720717;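 active = both repeat wells score below -2 in polarization z-score versus plate sample wells, excluding overly bright wells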;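 note: 100 nL library stock added to about 30 µL; numbers are from one replicate; some results filed as inactive read as strong as hits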
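test system = FITC-LANA peptide and chicken nucleosomes | amount = 240 nM purified chicken nucleosomes (480 nM peptide binding sites), final | reagent = 50 nM FITC-LANA1-23 probe | medium = TEN-BT buffer, pH 7.5 | doses = single compound addition by pin transfer, 100 nL per well | timing = 10–45 min, room temperature | detection = fluorescence polarization | repeats = duplicate plates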
The depositor's hits bear a star; / = not tested or not shown; & = joins results of further samples. This is a subset (hit frequency here may not be typical).

structure,KSHV LANA nucl,Ab BasE inh
CCOC(=O)C1CCCN(Cn2nnn(-c3ccc(OC)cc3)c2=S)C1 (stereo not given),/,-5.0
COc1ccccc1CNC(=O)COC(=O)c1ccncc1,/,2.1
CC1CCN(C(=S)NC(=O)C2CCCCC2)CC1,1.66,-1.0
O=S(=O)(c1ccc(S(=O)(=O)N(Cc2ccccc2)Cc2ccco2)cc1)N1CCCCCC1,-0.915,0.4
C=CCN(CC=C)C(=O)Cc1ccc(F)cc1,0.055,1.3
CC(C)(Cc1nc2ccccc2[nH]1)c1nc2ccccc2[nH]1,-1.56,0.2
O=C1c2ccccc2-c2onc3c(Oc4ccccc4)cc(O)c1c23,-1.36,4.2
CNC(=O)Nc1ccc2nc(C)sc2c1,0.059,1.4
COc1ccc(-n2c(SCC(=O)NC(C)(C#N)C(C)C)nc3ccccc32)cc1 (stereo not given),/,0.7
O=C(O)c1cccnc1SCCC(F)=C(F)F,0.27,/
CC(N=C1NS(=O)(=O)c2ccccc21)C(=O)N1CCc2ccccc2C1 (stereo not given),/,-2.3
Cc1ccc(C(CC(=O)O)c2ccco2)cc1 (stereo not given),/,-0.1
O=S(=O)(/N=C(\N/N=C/c1ccccc1O)N1CCCC1)c1ccccc1,0.358,6.2
CCOCCCn1c(C)c(C)c(C#N)c1N,/,6.4
Oc1c(Cl)cc(Cl)cc1CNn1cnnc1,-0.651,0.4
COc1ccc(C(=O)Nc2ccccc2C(=O)NC(C(=O)O)C(C)C)cc1 (stereo not given),0.326,0.2
Cc1ccc(S(=O)(=O)N2N=C(c3ccccc3)CC2c2ccc(Cl)cc2)cc1 (stereo not given),/,-3.1
O=C(O)CCN1CCC(Cc2ccccc2)CC1,0.472,0.7
CC(=O)N1CCC(C(=O)Nc2nc3ccc(Cl)cc3s2)CC1,0.454,/
CSc1cccc(NC(=O)c2cc3c(ccc4ccccc43)o2)c1,/,-0.1

An excerpt from above in order of molecular weight, ascending:
structure,KSHV LANA nucl,Ab BasE inh
CC(C)(Cc1nc2ccccc2[nH]1)c1nc2ccccc2[nH]1,-1.56,0.2
COc1ccccc1CNC(=O)COC(=O)c1ccncc1,/,2.1
CCOC(=O)C1CCCN(Cn2nnn(-c3ccc(OC)cc3)c2=S)C1 (stereo not given),/,-5.0

Further records
structure,KSHV LANA nucl,Ab BasE inh
C=C(C)CN(CC)C(=O)CSc1nc2ncc(Cl)cc2[nH]1,/,-2.5
CCOc1ccccc1N1CCN(Cc2ccsc2)CC1,-0.266,1.0
Cc1nnc(N(C)C(=O)c2ccc3c(c2)OCO3)s1,0.073,1.1
CC(C)N(CC(N)=O)C(=O)COc1ccccc1C#N,/,-0.8
NC(=O)NC(=O)CSc1nnc(C2CC2)n1N,/,-0.4
Cc1ccc(NC(=O)c2ccco2)cc1NC(=O)C(C)(C)Oc1ccc(Cl)cc1,-1.44,-0.6
Cn1cnnc1SCc1ccc(Cl)cc1,-0.263,-0.8
CN(C)C(=S)SCC(=O)Nc1ccc2c(c1)OCCO2,/,-0.3
COc1ccc(CCC(N)=O)cc1OC,-1.45,0.5
O=C(COC(=O)c1cc(=O)[nH]c(=O)[nH]1)NCc1ccccc1,/,1.4
CCOc1ccccc1OCc1n[nH]c(=S)n1N,/,2.3
O=S(NC1CCCCC1)C12CC3CC(CC(C3)C1)C2 (stereo not given),0.501,-0.8
COc1c(C)cc(S(=O)(=O)Nc2ccc(Cl)cn2)c(C)c1C,-0.907,-1.3
C=CCn1cnc2c(nnn2-c2ccc(C)c(C)c2)c1=O,0.0805,-1.6
COc1cc(N)c(-c2nc3ccccc3[nH]2)cc1OC,0.614,-0.6
N#CC(=C=[N-])c1nc2ccccc2nc1-[n+]1cccc(NC(=O)c2ccc(Br)o2)c1,/,3.1
COCCn1c(N)c(NCc2ccccc2)c(=O)n(CC(=O)NCCc2ccc(OC)c(OC)c2)c1=O,/,0.3
O=C(CSC1=NC2CCCCC2N1)N1CCOCC1 (stereo not given),0.376,-1.3
O=C(O)c1ccc(-c2ccc3c(c2)OCCO3)s1,/,0.7
O=C(N/N=C/c1ccc(OC(F)F)cc1)C1=COCCO1,/,1.8

Next part
structure,KSHV LANA nucl,Ab BasE inh
Cc1ccc(C(=O)NC(=O)CSc2n[nH]c(N)n2)cc1,0.369,0.2
Cc1ccc(NC(=O)CC2SC(=NC3(c4c(O)[nH]c(=O)[nH]c4=O)CCCC3)NC2=O)cc1 (stereo not given),-0.305,-2.8
O=C(C1CCCN1S(=O)(=O)c1ccc(-c2ccc(=O)[nH]n2)s1)N1CCc2ccccc21 (stereo not given),/,-2.4
CC1C/C(=N\NC(=O)c2ccccc2)CC(C)(C)C1 (stereo not given),/,2.1
CCC12CN3CC(C)(CN(C1)C31C(=O)Nc3ccc(Br)cc31)C2=O (stereo not given),-0.802,1.6
Cn1c(COc2ccc3c(c2)OCO3)n[nH]c1=S,-0.132,0.7
CC(=O)Nc1nc(CC(C)C)cc2c1c(=O)oc1ccccc12,0.322,4.2
CCn1c(=NC(C)=O)sc2ccccc21,-0.204,2.0
Cc1noc(C)c1CSc1nnc(-c2ccccc2Br)n1Cc1ccccc1,/,2.2
Cc1ccc(OCc2nn3c(C(C)(C)C)nnc3s2)cc1,0.958,0.3
CN(C)/C=C/C(=O)C(F)(F)F,/,2.5
CC1CS(=O)(=O)CCN1N=Cc1ccc([N+](=O)[O-])o1 (stereo not given),-0.0095,-2.0
COC(=O)CNC(=O)Cn1cnc2sc(C)c(S(=O)(=O)N3CCC(C)CC3)c2c1=O,0.129,-0.4
COc1ccc(/C=C/C(=O)N2CCC(c3ccccc3)C2)cc1 (stereo not given),0.057,-0.5
CCCC(=O)Nc1ccc2c(c1)nc1n2CCN(Cc2ccccc2)C1,-0.251,-1.5
O=C(Nc1cc(C(F)(F)F)ccc1-n1cncn1)C1=NN(c2ccccc2)C(=O)CC1,/,-1.1
COc1ccc(C)cc1S(=O)(=O)N1CCCC(C(=O)NCC2CCCO2)C1 (stereo not given),0.392,5.3
CSc1ccc(CN(C)C(C)C(=O)Nc2cccc(C#N)c2)cc1 (stereo not given),/,1.9
Cc1ccn2c(=O)c(C3=Nc4ccccc4C3=O)c(O)nc2c1,1.02,0.4
CCOC(=O)C(C#N)C(=O)c1ccc(NC(=O)c2ccccc2)cc1 (stereo not given),-0.161,0.7

Taken from above:
CCOC(=O)C(C#N)C(=O)c1ccc(NC(=O)c2ccccc2)cc1 (stereo not given) @ Ab BasE inh = 0.7
CCCC(=O)Nc1ccc2c(c1)nc1n2CCN(Cc2ccccc2)C1 @ Ab BasE inh = -1.5
Cc1ccc(C(=O)NC(=O)CSc2n[nH]c(N)n2)cc1 @ Ab BasE inh = 0.2

Continued:
structure,KSHV LANA nucl,Ab BasE inh
O=C(NCc1ccccc1)NCC1CCN(CCc2ccccc2)C1 (stereo not given),-0.076,1.4
NC(=O)C1CCN(Cn2nnc3ccccc32)CC1,/,4.5
O=C(CCc1nnc(-c2ccccc2)o1)c1ccc(Cl)cc1,/,-0.1
COC(=O)C1=C(C)NC(=O)/C1=C\c1ccc(C)cc1,-0.845,1.4
c1ccc(Cn2c(Sc3nnnn3-c3ccccc3)nnc2-c2ccccc2)cc1,-0.278,4.1
O=C1/C(=C\c2ccsc2)N2CCC1CC2,0.02,2.1
CCOc1ccc(C2=CC(c3cccc(OC)c3)c3ccccc3O2)cc1 (stereo not given),/,2.8
CS(=O)(=O)N1Cc2ccccc2CC1C(=O)OCC(=O)NCc1ccccc1 (stereo not given),/,-5.9
CC(=O)Nc1ccc(C(=O)N2CCc3ccccc3C2)cc1,3.25,-2.3
O=C(/C(=N/Nc1ncnc2sc3c(c12)CCCC3)c1ccco1)c1ccco1,/,-1.8
O=C(CCc1ccc(S(=O)(=O)N2CCOCC2)cc1)N/N=C/c1ccco1,/,1.1
O=C(O)CCN1C(=O)c2ccc(Oc3ccc4c(c3)C(=O)N(CCC(=O)O)C4=O)cc2C1=O,-0.487,1.7
O=C(O)C1C2C=CC3(O2)C1C(=O)N1CCCOC13 (stereo not given),-0.168,-0.3
CN(C)S(=O)(=O)c1cccc(COC(=O)c2ccc(Cl)cc2O)c1,/,2.5
c1ccc(CN(Cc2cccs2)C(c2cccs2)c2nnnn2C2CCCC2)cc1 (stereo not given),-0.132,-1.6
O=C(COC(=O)CSc1ccc(F)cc1)NC1CC1,/,0.5
C=CCN(C(=O)c1cn(CC(C)C)c(=O)c2cc(OC)c(OC)cc12)c1ccccc1,0.127,-0.2
Cc1ccc2c(CC(=O)NCC3CCCCC3)coc2c1,/,0.9
CCc1ccc2[nH]c(C)c(CN3CCCCC3)c(=O)c2c1,0.19,2.0
Cc1cc2ncn(-c3ccc(S(=O)(=O)N4CCCC4)cn3)c2cc1C,/,2.2

Further records.
structure,KSHV LANA nucl,Ab BasE inh
CC1CCN(C(=O)COC(=O)COc2ccccc2C#N)CC1,/,-0.3
CCC(=O)n1nc(-c2ccccc2)nc1N,-0.195,-2.4
c1ccc(Nc2nc(N3CCCC3)nc(N3CCCC3)n2)cc1,-1.19,3.9
COC(=O)C1=C(C)N=c2s/c(=C/c3ccc(OC)cc3)c(=O)n2C1c1cccs1 (stereo not given),/,3.2
CC(C)C[C@H](NC(=O)[C@@H](Cc1c[nH]c2ccccc12)NC(=O)[C@H](Cc1ccc(O)cc1)NC(=O)[C@H](CO)NC(=O)[C@H](Cc1c[nH]c2ccccc12)NC(=O)[C@H](Cc1cnc[nH]1)NC(=O)[C@@H]1CCC(=O)N1)C(=O)N[C@@H](CCCN=C(N)N)C(=O)N1CCC[C@H]1C(=O)NCC(N)=O,0.076,/
CC1CC(NNc2ccc(Br)cc2)NC(=S)N1 (stereo not given),0.033,-2.3
CN(C)S(=O)(=O)n1cc(/C=C(\NC(=O)c2ccccc2)C(=O)N2CCOCC2)c2ccccc21,-0.701,-1.0
COc1ccc(C(=O)/C=C(\N)C(F)(F)F)c(O)c1,0.488,-2.0
CSc1nnc(CCNC(=O)N(c2ccccc2)c2ccccc2)n1C,-0.891,2.1
CCOc1ccccc1C(=O)NCc1ccc(OC)c(C(=O)OC)c1,/,-1.6
CC(C)Cn1c(Cc2ccccc2)nc2ccccc21,/,-1.4
NC(=S)N1N=C(c2ccc(Cl)cc2)CC1c1ccco1 (stereo not given),/,-3.6
Cc1ccc(O)c(C(=O)/C=C(\N)C(F)(F)F)c1,-0.382,1.4
Cc1cc(C=NCCO)c(C)n1-c1cc(Cl)ccc1Cl,/,3.7
CC(C)Cn1c(=O)c2cc3c(=O)n(CC(C)C)c(=O)c3c(C(=O)c3ccc(Cl)cc3)c2c1=O,/,1.9
CC1CCCC(C)N1C(=O)CSc1nnc(-c2ccccc2)o1 (stereo not given),1.15,-5.3
Cc1sc(-c2ccccc2)nc1CC(=O)NN,0.626,2.9
CC(=O)Nc1ccccc1C#N,0.617,0.2
CC(C#N)Sc1nnc(-c2ccco2)n1C1CCCCC1 (stereo not given),/,1.1
O=C1/C(=C\c2cccnc2)SC(=S)N1C1CCS(=O)(=O)C1 (stereo not given),-1.16,2.5

Additional records follow:
structure,KSHV LANA nucl,Ab BasE inh
COc1ccc(-c2c(N)n[nH]c2-c2ccccc2)cc1OC,-0.704,-2.5
Cc1cc2occ(CC(=O)OCC(=O)Nc3sccc3C#N)c2cc1C,/,-29.8
CCCN(CCC)S(=O)(=O)c1ccc(N)cc1,0.523,-1.2
Cn1c(N)c(C(=S)NC(=O)C(C)(C)C)c(=O)[nH]c1=O,/,1.0
CCCN=C1NC(=O)C(CC(=O)Nc2ccccc2Cl)S1 (stereo not given),/,4.8
Cc1noc(C)c1/C=C/C(=O)Nc1ccccc1C(C)(C)C,/,0.2
OC(COc1cccc2ccccc12)CN1CCOCC1 (stereo not given),-0.905,-0.2
O=C1NCCNC1CC(=O)N1CCN(c2ccccc2)CC1 (stereo not given),1.85,-3.8
CCN(CC)CCOC(=O)C1(C2CCCCC2)CCCCC1,0.163&-0.905&1.29,-2.8&-2.9
O=C(Cc1ccccc1)NC1CCN(C(=O)c2cccs2)CC1,/,1.4
CCOC(=O)c1nn(-c2ccccc2)c(=O)c2c(N)c(C#N)c(-c3ccco3)cc12,/,6.0
O=C(c1cc2c(s1)-c1ccccc1SC2)N1CCCC1,-0.299,-1.7
CC(C)Cn1c(SCc2nnc(-c3ccccc3)o2)nnc1-c1ccccc1F,/,0.8
c1ccc(Oc2cccc(Oc3ccccc3)c2)cc1,/,3.7
O=C(CSc1nnnn1-c1ccccc1)Nc1ccc(S(=O)(=O)Nc2nccs2)cc1,0.243,0.2
O=C(N1CCCCC1)N1c2ccccc2C=Cc2ccccc21,0.001,0.3
COC(=O)c1ccsc1NC(=O)CS(=O)(=O)c1ccccc1,0.667,0.1
Cc1cc(C)n(C(=O)c2cccc(S(=O)(=O)N3CCCC3)c2)n1,0.024,4.9

One compound at a time, from the list above:
Shown for `CCCN=C1NC(=O)C(CC(=O)Nc2ccccc2Cl)S1` (stereo not given) → KSHV LANA nucl = /; Ab BasE inh = 4.8
Shown for `COc1ccc(-c2c(N)n[nH]c2-c2ccccc2)cc1OC` → KSHV LANA nucl = -0.704; Ab BasE inh = -2.5
